Vaccinia mCherry = inhibitors of vaccinia virus infection (mCherry reporter signal). Vaccinia virus mCherry reporter infection, fluorescence; about a quarter of the inactives have no number. Potency, µM (doses to about 36.5 µM), without a hit: at the top dose activity change, negative = inhibition, actives largely listed as inhibitors. 0.63% of 310,000 active. AID 720579; active = well fitted inhibition curve with a large enough effect; inconclusive = small, poorly fitted or top-dose-only effect; inactive = no such curve, though single readings can be large or run the other way; tested in A549 cells; note: nearly all actives have a fitted effect of over 35% in size; inactives centre near -10
Vaccinia Venus = inhibitors of vaccinia virus (Venus reporter). Vaccinia virus Venus reporter expression, fluorescence. 0.46% of 330,000 active. Potency, µM (doses to about 36.5 µM), inactives show at the highest dose activity change, negative = inhibition, usual class: inhibitors. AID 720580; active means well fitted inhibition curve with a large enough effect; inconclusive means small, poorly fitted or top-dose-only effect; inactive means no such curve, though single readings can be large or run the other way; tested in A549 cells; note: nearly all actives have a fitted effect of over 30% in size; inactives centre near -10
* hit, by the source's call; i = inactive; ? = inconclusive; . = not tested or not shown; & = joins results of further samples; [ ] = dose if it differs, or a comment. % is set by controls: 0 for no effect and ±100 for the full control effect; potency is the fitted concentration of half-maximal effect.

SMILES | Vaccinia mCherry | Vaccinia Venus
CC(=O)c1sc(NC(=O)c2cccc(C)c2)nc1C | -13.9% | -5.2%
COCCNCC(=O)NC12CC3CC(CC(C3)C1)C2 | -14.8% | -12.2%
COc1cc(N=c2ssnc2Cl)cc(OC)c1OC | i | -15.6%
Cc1nnc(Nc2ccccc2)n(N)c1=O | -10.9% | -9.7%
CCOc1ccccc1NC(=O)c1ccc(F)c(S(=O)(=O)NCc2ccc3c(c2)OCO3)c1 | -15.5% | -6.7%
CCC(=O)c1ccc(OCC(=O)NCCc2ccccn2)cc1 | -10.3% | -12.4%
COc1ccc(S(=O)(=O)N2CCOCC2)cc1NC(=O)/C=C/c1ccc(F)cc1 | -17.7% | ?
CCc1ccc(NC(=O)CSc2nc(-c3ccccc3Cl)nc3c2Cc2c(CO)cnc(C)c2O3)cc1 | ? | ?
CCOC(=O)C1(Cc2ccccc2Cl)CCN(C(=O)c2cnccn2)CC1 | i | -11.1%
O=C(Nc1ccc(Cl)cc1F)C1CC(=O)N(Cc2ccco2)C1 (stereo not given) | i | -5.3%
Cc1ccc([C@H]2C[C@H](n3cc(C4CC4)nn3)[C@@H](O)CN2Cc2cccs2)cc1 | ? | -13.7%
CC(=O)c1cnn(-c2cc(Oc3ccc(F)cc3)ncn2)c1C | . | ?
CC1(C)CSC(=NCc2ccccc2)N1C(=O)c1cccc([N+](=O)[O-])c1 | ? | ?
COc1cc(OC)cc(OC(=O)c2ccc3c(=O)n4c(nc3c2)CCC4)c1 | -26.9% | -21.7%
O=C(N/C(=C\c1ccc(Br)cc1)C(=O)N1CCOCC1)c1ccc([N+](=O)[O-])cc1 | -17.1% | -9.2%
CCOC(=O)C1CCCN(CC(=O)Nc2c(F)c(F)c(F)c(F)c2F)C1 (stereo not given) | -8.8% | 5.2%
Cn1c(=O)c2c(nc(NCc3ccc4c(c3)OCO4)n2Cc2ccccc2)n(C)c1=O | . | -47.9%
Cc1cccc(COc2ccccc2C(=O)OCC(=O)N(C)c2c(N)n(Cc3ccccc3)c(=O)[nH]c2=O)c1 | -9.5% | -5.3%
Cc1ccsc1/C=N/NC(=O)c1nnn(-c2nonc2N)c1-c1ccccc1 | -14.8% | -13.4%
O=C(Nc1ncc(S(=O)(=O)c2ccc([N+](=O)[O-])cc2)s1)c1cccnc1 | -20.4% | -3.8%
Cc1ccc(S(=O)(=O)CCSc2nccn2C)cc1 | -12.7% | -9.1%
Cc1ccc([C@@H]2CC=C(C(=O)O)[C@H](c3cccc(F)c3)N2S(=O)(=O)c2ccccc2C)cc1 | -8.0% | 0.0%
Cc1ccccc1N1CCN(S(=O)(=O)c2nnc(NC(=O)c3ccc(C(C)C)cc3)s2)CC1 | -24.2% | -28.6%
Cc1onc(-c2ccccc2)c1C(=O)c1c[nH]c(C(=O)NCCCN2CCOCC2)c1 | -7.5% | -18.9%
Cc1c(N=Nc2c(O)n(C)c(=O)n(C)c2=O)c(=O)n(-c2ccccc2)n1C | -1.8% | -7.2%
The list goes on.
SMILES | Vaccinia mCherry | Vaccinia Venus
Cc1ccc(NC(=O)Cc2ncon2)cc1Cl | i | -17.1%
COc1cccc(C(=O)NCCc2sc(-c3cccc(C)c3)nc2C)c1 | -1.8% | 3.4%
Cc1ccccc1NC(=O)C1CCC(=O)N1 (stereo not given) | i | -0.9%
COc1ccc(C2CC(C(F)(F)F)n3ncc(C(=O)NCC4CCCO4)c3N2)cc1OC (stereo not given) | -5.3% | 6.0%
Cc1nn(Cc2ccccc2)c(C)c1/C=N/NC(=O)c1ccccc1O | ? | -11.1%
CCCCn1c(CCCNC(=O)CC)nc2ccccc21 | i | -6.4%
O=C(COC(=O)c1ccco1)NCc1ccc(Cl)cc1Cl | -6.4% | -6.2%
CC(=O)CCc1c(C)nc2ccc(C)cc2c1Cl | ? | ?
Cc1cc(C)c(NC(=S)NC(=O)c2c(Cl)c(C)nn2C)c([N+](=O)[O-])c1 | i | -13.6%
COc1cc(OC)cc(C(=O)NCC(=O)OC(C)C(=O)NC(C)C2CC3CCC2C3)c1 (stereo not given) | -9.3% | -1.8%
N=C1C(c2ccccc2)=C(O)CN1c1cccc2ccccc12 | 42.1%[activator] | 4.3%
Cc1ccc(CNC(=O)c2sc3nc4c(c(C(F)(F)F)c3c2N)CCC4)cc1 | -10.8% | -0.4%
C/C(=N/O)c1ccc(Oc2cnccn2)cc1 | i | 1.0%
CC1=C(/C=C/C(C)=C/C=C/C(C)=C/C=C/C=C(C)/C=C/C=C(C)/C=C/C(=O)[C@]2(C)CC(O)CC2(C)C)C(C)(C)CC(O)C1 (stereo not given in full) | -12.3% | -10.9%
CCOC(=O)/C(C#N)=C/c1ccc(-c2ccc(Br)cc2)o1 | -20.1% | -3.4%
Cc1cc(C(=O)N/N=C/c2c[nH]c3ccccc23)c(C)o1 | -9.9% | -3.5%
CC(C)Cn1c(N)c(C(=O)CSc2ncccn2)c(=O)n(C)c1=O | -18.2% | -8.5%
NS(=O)(=O)c1ccc(Cl)c(C(=O)Nc2ccccc2[N+](=O)[O-])c1 | 3.7% | -1.4%
COc1ccc(S(=O)(=O)N2CCOCC2)cc1C(=O)Nc1ccc2c(c1)OCO2 | -4.1% | -17.1%
O=C1CN(c2nc3nonc3nc2N2CCCCC2)CCN1 | -23.0% | -1.8%
S=c1[nH]nc(COc2ccc3ccccc3c2)o1 | . | -9.3%
COc1cc(OC)c2c(=O)c(O)c(-c3ccc(OC)c(OC)c3)oc2c1 | i | 0.0%
COc1ccc(Cn2c(=O)c3c(nc(NCCO)n3C)n(C)c2=O)cc1 | . | -14.7%
CCCn1c(/N=C/c2ccc3c(c2)OCO3)nc2ccccc21 | -11.2% | -5.9%
O=c1c2ccccc2nc(CSc2nnnn2-c2ccccc2)n1-c1ccccc1 | -15.7% | -12.3%

Record cards, from the list above:
Results for `CC(=O)CCc1c(C)nc2ccc(C)cc2c1Cl` → Vaccinia mCherry = ?; Vaccinia Venus = ?
Results for `C/C(=N/O)c1ccc(Oc2cnccn2)cc1` → Vaccinia mCherry = i; Vaccinia Venus = 1.0%

Later entries:
SMILES | Vaccinia mCherry | Vaccinia Venus
CCOC(=O)CNC(=O)c1sc(NC(=O)c2cccc(F)c2)nc1C | -17.4% | -6.1%
CCOc1ccc(C(=O)NCC(=O)NCC(c2cccs2)N2CCOCC2)cc1 (stereo not given) | -26.2% | -9.8%
CN(C)c1ccc(-c2cc(NC=O)c3ncc(-c4ccc(F)c(Cl)c4)n3c2)cc1 | 6.1% | 36.4%[activator]
C/C(=N\NC(=O)c1ccccc1[N+](=O)[O-])c1ccc(Br)s1 | i | 8.6%
O=C(Cc1ccccc1Cl)NC1(O)C(=O)c2ccccc2C1=O | -19.2%[7.34 µM] | -19.7%[7.34 µM]
COc1cccc(C=O)c1OC(=O)N1CCOCC1 | i | -13.3%
C/C=C(\C)CN1CCN(c2cc(C)ccc2C)CC1 | i | -2.8%
NC(=O)C1CCN(C(=O)c2cnn(-c3ccccc3)c2NC(=O)c2cccc(F)c2)CC1 | -5.7% | -4.8%
CCOc1ccccc1N1CCN(CC(=O)Nc2nccs2)CC1 | -2.8% | -7.0%
CC(=O)Nc1ccc(S(=O)(=O)N2CCCC2C(=O)Nc2ccc3c(c2)OCCO3)cc1 (stereo not given) | 0.9% | -0.4%
N#C/C(=C\c1ccc(Oc2ccc(C(F)(F)F)cc2[N+](=O)[O-])cc1)c1nc2ccccc2[nH]1 | . | -15.8%
COC(=O)c1cc(S(=O)(=O)N2CCN(c3cc(C)ccc3C)CC2)c[nH]1 | -10.2% | -14.7%
CC(C)OCCCn1c(=S)[nH]c2ncccc2c1=O | -10.7% | -11.5%
O=C(CCCc1nc(-c2ccccc2)no1)Nc1cc(C(F)(F)F)cc(C(F)(F)F)c1 | -8.1% | -2.9%
CC(=O)c1ccc(NC(=O)CSc2nnc(-c3ccoc3C)n2Cc2ccccc2)cc1 | -1.4% | -19.5%
O=S(=O)(NC1CN2CCC1CC2)c1ccc(Cl)cc1 (stereo not given) | -0.2% | -4.2%
COC(=O)c1cc2c(s1)=NC=NP=2(N1CCOCC1)N1CCOCC1 | -16.0%&-14.5% | -7.3%&-1.1%
CN(CCOc1cccc(C(F)(F)F)c1)Cc1ccccc1 | -1.8% | -6.1%
O=C(COC(=O)CNC(=O)c1sc2ccccc2c1Cl)Nc1c(Cl)cc(Cl)cc1Cl | -21.1% | -3.2%
CCOc1ccc(NC(=O)c2cccnc2SC)cc1 | 0.7% | -12.6%
CCOC(C(=O)OCCCN(CC)CC)(c1ccccc1)c1ccccc1 | i | -18.9%
O=C(O)c1cccc2c1-c1ccccc1/C2=N\Nc1ccccc1 | -14.0% | -12.8%
CC(C)OCCCNC(=O)c1cc(-c2cccs2)nc2ccccc12 | -8.6% | -3.8%
O=C(Cc1coc2ccc3ccccc3c12)N1CCCC1 | -5.9% | 13.1%
CCCCCCNC(=O)CCc1c(C)nc2nc(-c3cc(OC)cc(OC)c3)nn2c1C | -25.0% | -16.6%
Other entries follow:
SMILES | Vaccinia mCherry | Vaccinia Venus
Cc1nc2ccccc2cc1C(=O)NCc1ccco1 | . | -13.5%
CCCOc1ccc(C(F)(F)F)cc1NC(=O)CN1C(=O)C(=O)N(CC)C1=O | -12.2% | -6.7%
CS(=O)(=O)N1CCN(Cc2cc(=O)n3ccsc3n2)CC1 | -7.3% | -18.2%
COc1ccc(C(=O)COC(=O)CN2C(=O)c3ccccc3C2=O)c(OC)c1 | -0.4% | -5.8%
COc1cc(NC(=O)CC(c2ccc(C)cc2)N2Cc3ccccc3C2=O)cc(OC)c1 (stereo not given) | -23.8% | -7.2%
COc1ccc(CNC(=O)CSc2nc(C)cs2)cc1 | 0.0% | 0.0%
CCOC(=O)c1ccc(NC(=O)CCS(=O)(=O)Cc2ccccc2)cc1 | -13.5% | -6.2%
O=c1[nH]nc(SCc2ccccc2)n1C1CC2C=CC1C2 (stereo not given) | i[7.34 µM] | -18.3%[7.34 µM]
Cc1ccc(OCCC(=O)Nc2ccc(C)c(F)c2)cc1 | -8.5% | -3.1%
Cc1cc(OCc2nn[nH]n2)c2c(C)c(Cc3ccccc3)c(=O)oc2c1 | . | -12.5%
CC(=O)NS(=O)(=O)c1ccc(NC(=O)c2ccc(Cl)cc2[N+](=O)[O-])cc1 | i | -4.1%
O=C(NCCNC(=O)c1ccc(Cl)cc1Cl)c1ccccn1 | -10.4% | 7.4%
Cc1cc(C)cc(NC(=O)c2ccc(Cn3nc(C)c(Cl)c3C)o2)c1 | -14.5% | -8.7%
Cc1cn([C@H]2C[C@H](O)[C@@H](CNC(=O)[C@@H]3C[C@H](F)CN3)O2)c(=O)[nH]c1=O | i | -7.8%
CCS(=O)(=O)c1c(Nc2cc(C)ccc2C)sc(C(=O)c2ccccc2)c1N | -16.2% | -13.6%
CSc1nsc(/C=C/Nc2ccc(F)cc2)c1C#N | -6.2% | 8.5%
COc1cc(CNC[C@H]2O[C@@H](n3cnc(C(N)=O)n3)[C@H](O)[C@@H]2O)ccc1OCc1cccc(Cl)c1 | i | -14.2%

Structures above that contain a Cl atom, in the order listed:
SMILES | Vaccinia mCherry | Vaccinia Venus
COc1cc(N=c2ssnc2Cl)cc(OC)c1OC | i | -15.6%
CCc1ccc(NC(=O)CSc2nc(-c3ccccc3Cl)nc3c2Cc2c(CO)cnc(C)c2O3)cc1 | ? | ?
CCOC(=O)C1(Cc2ccccc2Cl)CCN(C(=O)c2cnccn2)CC1 | i | -11.1%
O=C(Nc1ccc(Cl)cc1F)C1CC(=O)N(Cc2ccco2)C1 (stereo not given) | i | -5.3%
Cc1ccc(NC(=O)Cc2ncon2)cc1Cl | i | -17.1%
O=C(COC(=O)c1ccco1)NCc1ccc(Cl)cc1Cl | -6.4% | -6.2%
CC(=O)CCc1c(C)nc2ccc(C)cc2c1Cl | ? | ?
Cc1cc(C)c(NC(=S)NC(=O)c2c(Cl)c(C)nn2C)c([N+](=O)[O-])c1 | i | -13.6%
NS(=O)(=O)c1ccc(Cl)c(C(=O)Nc2ccccc2[N+](=O)[O-])c1 | 3.7% | -1.4%
CN(C)c1ccc(-c2cc(NC=O)c3ncc(-c4ccc(F)c(Cl)c4)n3c2)cc1 | 6.1% | 36.4%[activator]
O=C(Cc1ccccc1Cl)NC1(O)C(=O)c2ccccc2C1=O | -19.2%[7.34 µM] | -19.7%[7.34 µM]
O=S(=O)(NC1CN2CCC1CC2)c1ccc(Cl)cc1 (stereo not given) | -0.2% | -4.2%
O=C(COC(=O)CNC(=O)c1sc2ccccc2c1Cl)Nc1c(Cl)cc(Cl)cc1Cl | -21.1% | -3.2%
CC(=O)NS(=O)(=O)c1ccc(NC(=O)c2ccc(Cl)cc2[N+](=O)[O-])cc1 | i | -4.1%
O=C(NCCNC(=O)c1ccc(Cl)cc1Cl)c1ccccn1 | -10.4% | 7.4%
Cc1cc(C)cc(NC(=O)c2ccc(Cn3nc(C)c(Cl)c3C)o2)c1 | -14.5% | -8.7%
COc1cc(CNC[C@H]2O[C@@H](n3cnc(C(N)=O)n3)[C@H](O)[C@@H]2O)ccc1OCc1cccc(Cl)c1 | i | -14.2%
